Bioassay records deposited in PubChem BioAssay by several laboratories.
PrP 5UTR inh – inhibition of PrP 5' UTR reporter expression; hit rate 0.35% among 340,000; inhibition, % (concentration not given with the values); cell-based PrP 5' UTR mRNA reporter, plate reader; AID 488862;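 active = every replicate at 50% or more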;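 note: 0 = median of the neutral control wells; tested in H4 reporter cells; numbers are from one replicate; inactives centre near -14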
Mtb hypoxia rep – inhibitors of hypoxia-regulated fluorescent reporter in Mycobacterium tuberculosis; M. tuberculosis hypoxia-regulated fluorescent reporter, fluorescence; AID 1159583; hit rate 0.1% among 300,000; fluorescence inhibition, % (no concentration beside the values);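 active = 35 to 45% if threefold the growth effect, above 45% if 1.5-fold the growth effect; inactive = the rest, general growth blockers included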;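 note: wells of about 50 µL received 100 nL stock; 0% = vehicle wells and 100% = reference inhibitor wells; whole bacteria with a GFP reporter of the hypoxia response; strong numbers were not always called active; many hits fall short of the cut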
BJeLR viability – BJeLR cell viability loss; hit rate 0.17% among 300,000; AID 1554; BJeLR (HRASV12) viability, CellTiter-Glo ATP luminescence, 48 h; reference of the scale not given here; inhibition, % (no concentration beside the values);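 active = replicate mean above 50%; inconclusive = above 50% but judged a plate artefact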;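 note: 50 nL library stock added to about 25 µL; numbers are from one replicate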
Bead autofluor – flagged as autofluorescent in microsphere protease counterscreen. compound autofluorescence counterscreen, microsphere flow cytometry; hits give high values. fluorescence intensity (concentration not given with the values). hit rate 3.1% among 360,000;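 active = at least 3 SD above the mean of all compounds, about 16000 in these data; inconclusive = too few beads counted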;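 note: 100 nL of 1 mM stock went into each well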
RN4220 kill – kills Staphylococcus aureus RN4220; S. aureus RN4220 growth, OD600, 16 h; inhibition, % (no concentration beside the values); hit rate 0.33% among 330,000; AID 1259311;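 active = z-score of -3 or lower and OD600 up to 0.18 on both plates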;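 note: plate controls were untreated cells for no effect and reference antibiotic for full effect; stock transfer was 100 nL into about 80 µL; one replicate is shown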
Sa ugtP lethal – kills S. aureus RN4220 lacking UgtP. S. aureus RN4220 ugtP deletion, OD600 growth, 16 h; some inactives read as strong as hits. hit rate 0.54% among 330,000. growth inhibition, % (test concentration not listed). AID 1259309;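 active = z-score under -3 and OD600 up to 0.15 on both plates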;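 note: plate controls were untreated wells for no effect and antibiotic for full effect; wells of about 80 µL received 100 nL stock; the first replicate is given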
Mtb hypoxia rep growth – recorded beside Mtb hypoxia rep, whose call it bears; growth inhibition, %; measured here: M. tuberculosis growth (absorbance);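 0% = vehicle and 100% = reference antibiotic; read after six days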
Starred values were filed as active, the others as inactive; ? = inconclusive; · = no result given; & = joins results of further samples.

Values run as follows: PrP 5UTR inh	Mtb hypoxia rep	Mtb hypoxia rep growth	BJeLR viability	Bead autofluor	RN4220 kill	Sa ugtP lethal
- Cc1ccc2nc(N/N=C\c3ccc([N+](=O)[O-])o3)nc(-c3ccccc3)c2c1
  1.9	·	·	-6.4	3028	·	·
- Cc1cc(=O)oc2c(CN(C)Cc3ccccc3)c(O)ccc12
  -9.2	·	·	8.8	4607	1.6	-2.2
- CC1CN(C2=NC(=O)/C(=C/c3ccncc3)S2)CC(C)O1 (stereo not drawn)
  -13.0	0.0	4.0	14.2	5513	3.0	-2.4
- COc1ccc(NC(=O)CN(C)C(=O)CCC(=O)c2ccc(C)cc2)cc1
  -12.6	1.6	-1.5	4.5	5670	-1.6	-5.3
- CCOC(=O)c1c(N)nn(C(C)=O)c1-c1ccccc1
  -45.5	·	·	-3.5	2420	-5.4	-8.4
- Cc1nn(-c2ccccc2)c2c1cc1c(=O)n(C)c(=O)nc-1n2-c1ccccc1F
  ·	-3.1	6.9	1.7	·	1.8	3.7
- CCCn1c(C=NNc2nc3ccccc3[nH]2)nc2ccccc21
  ·	-7.6	9.4	·	·	-7.5	-29.8
- COC(=O)c1sc2nc3c(cc2c1N)C(=O)CC(C)(C)C3
  -44.9	-8.8	-3.9	3.1	7853	1.0	-1.6
- COc1ccc(NC(=O)c2c(-c3c(Cl)cccc3Cl)noc2C)cn1
  1.6	4.8	8.8	2.1	5305	-1.3	-3.3
- COc1ccc(S(=O)(=O)N2CCCCC2)cc1NC(=O)c1ccc2ccccc2n1
  -18.3	-2.4	3.3	-22.4	9286	18.8	-8.1
- Cc1nc2ccccn2c1C(=O)NN=C1CCCC1
  -16.4	0.4	4.2	0.6	4041	1.6	1.4
- Nc1nnc(SCC(=O)Nc2cccc(S(N)(=O)=O)c2)s1
  -15.2	-7.1	-1.2	0.8	3955	-8.0	-3.7
- CCOC1OC(C(=O)NC2CC2)=CC(c2ccccc2)C1CCCO (stereo not drawn)
  ·	-1.7&6.5	0.3&9.0	·	·	6.5&8.8	-0.4&-1.8
- O=C1/C(=C/c2ccc3c(c2)OCO3)Oc2cc(OCC(=O)N3CC(O)C[C@H]3C(=O)O)ccc21 (stereo partly drawn)
  0.9	·	·	-3.7	5669	1.1	6.0
- CC(=NNC(=O)c1cccs1)c1ccc2c(c1)OCCO2
  -64.7	-9.3	-2.6	·	3052	9.9	1.3
- COc1ccc(CCNS(=O)(=O)c2ccc(S(=O)(=O)N3CCCC3)cc2)cc1OC
  3.9	-4.7	-1.5	5.6	9339	2.4	-3.0
- CC1=CC(C)(C)Nc2ccc(OS(=O)(=O)c3ccc(C)cc3)cc21
  -15.8	3.2	6.4	-6.0	17799*	3.8	-2.4
- O=C(NCCc1ccc(Cl)cc1)c1n[nH]c2ccccc12
  -12.8	7.8	-12.0	·	4624	5.5	3.1
- CC(NC(=O)c1ccc([N+](=O)[O-])cc1[N+](=O)[O-])c1ccc(-c2ccccc2)cc1 (stereo not drawn)
  -3.3	2.5	13.8	-5.7	3187	7.5	28.3
- CCn1ncc(CN2CCC(C(=O)Nc3cccc(-c4cccc(F)c4)c3)CC2)c1C
  -9.0	-3.2	-11.0	0.6	5506	-0.8	-12.6

Some of the entries above, set out differently.
SMILES,PrP 5UTR inh,Mtb hypoxia rep,Mtb hypoxia rep growth,BJeLR viability,Bead autofluor,RN4220 kill,Sa ugtP lethal
COc1ccc(NC(=O)CN(C)C(=O)CCC(=O)c2ccc(C)cc2)cc1,-12.6,1.6,-1.5,4.5,5670,-1.6,-5.3
CCOC(=O)c1c(N)nn(C(C)=O)c1-c1ccccc1,-45.5,·,·,-3.5,2420,-5.4,-8.4
Cc1nn(-c2ccccc2)c2c1cc1c(=O)n(C)c(=O)nc-1n2-c1ccccc1F,·,-3.1,6.9,1.7,·,1.8,3.7
CCCn1c(C=NNc2nc3ccccc3[nH]2)nc2ccccc21,·,-7.6,9.4,·,·,-7.5,-29.8
COC(=O)c1sc2nc3c(cc2c1N)C(=O)CC(C)(C)C3,-44.9,-8.8,-3.9,3.1,7853,1.0,-1.6
COc1ccc(NC(=O)c2c(-c3c(Cl)cccc3Cl)noc2C)cn1,1.6,4.8,8.8,2.1,5305,-1.3,-3.3
COc1ccc(S(=O)(=O)N2CCCCC2)cc1NC(=O)c1ccc2ccccc2n1,-18.3,-2.4,3.3,-22.4,9286,18.8,-8.1
Cc1nc2ccccn2c1C(=O)NN=C1CCCC1,-16.4,0.4,4.2,0.6,4041,1.6,1.4
Nc1nnc(SCC(=O)Nc2cccc(S(N)(=O)=O)c2)s1,-15.2,-7.1,-1.2,0.8,3955,-8.0,-3.7
CCOC1OC(C(=O)NC2CC2)=CC(c2ccccc2)C1CCCO (stereo not drawn),·,-1.7&6.5,0.3&9.0,·,·,6.5&8.8,-0.4&-1.8
O=C1/C(=C/c2ccc3c(c2)OCO3)Oc2cc(OCC(=O)N3CC(O)C[C@H]3C(=O)O)ccc21 (stereo partly drawn),0.9,·,·,-3.7,5669,1.1,6.0
CC(=NNC(=O)c1cccs1)c1ccc2c(c1)OCCO2,-64.7,-9.3,-2.6,·,3052,9.9,1.3
COc1ccc(CCNS(=O)(=O)c2ccc(S(=O)(=O)N3CCCC3)cc2)cc1OC,3.9,-4.7,-1.5,5.6,9339,2.4,-3.0
CC1=CC(C)(C)Nc2ccc(OS(=O)(=O)c3ccc(C)cc3)cc21,-15.8,3.2,6.4,-6.0,17799*,3.8,-2.4
O=C(NCCc1ccc(Cl)cc1)c1n[nH]c2ccccc12,-12.8,7.8,-12.0,·,4624,5.5,3.1
CC(NC(=O)c1ccc([N+](=O)[O-])cc1[N+](=O)[O-])c1ccc(-c2ccccc2)cc1 (stereo not drawn),-3.3,2.5,13.8,-5.7,3187,7.5,28.3
CCn1ncc(CN2CCC(C(=O)Nc3cccc(-c4cccc(F)c4)c3)CC2)c1C,-9.0,-3.2,-11.0,0.6,5506,-0.8,-12.6

Other entries follow.
Values run as follows: PrP 5UTR inh	Mtb hypoxia rep	Mtb hypoxia rep growth	BJeLR viability	Bead autofluor	RN4220 kill	Sa ugtP lethal
- S=c1[nH]nc(-c2ccncc2)n1Cc1ccco1
  -24.6	-1.6	7.3	7.1	?	8.1	5.7
- O=C(NCCN1CCOCC1)c1cc(-c2ccc(Cl)c(Cl)c2)on1
  -17.2	18.1	3.6	-9.1	5942	4.4	2.9
- O=C(OCc1c(-c2ccccc2)ncc2ccccc12)c1ccc(F)cc1
  -42.7	6.3	8.6	·	3950	-0.2	-0.2
- O=C(Nc1ccnn1C1CCN(C2CCC2)CC1)c1ccccc1Cl
  -19.6	·	·	9.9	5716	·	·
- CCn1c(SCc2ccccc2)nnc1-c1ccc(S(=O)(=O)N2CCCCC2)cc1
  5.1	1.7	4.3	-2.3	8642	0.1	4.1
- COC(=O)c1cccc([N+](=O)[O-])c1CS(=O)(=O)c1ccc(C)cc1
  -17.6	3.1	4.8	19.8	4323	12.1	6.8
- COc1ccccc1NC(=O)CC(=O)c1cccc([N+](=O)[O-])c1
  -57.8	6.4	-2.3	-7.6	3540	-0.8	-2.3
- Cc1cccc(NC(=O)N2CCCC2)c1
  -37.7	3.0	-1.4	-2.1	2649	4.0	7.6
- N#Cc1c2c(c[nH]c1=O)CCN2Cc1ccccc1
  -21.4	·	·	-2.7	2461	-5.0	-8.1
- Cc1c(C(=O)Nc2ccc(F)cc2)cn2c(nc3ccccc32)c1C#N
  -31.0	12.9	1.6	-14.7	5245	6.4	2.8
- CNC(C)Cc1ccccc1Sc1ccc(O)cc1 (stereo not drawn)
  -73.6	-1.3	1.6	-1.8	3163	1.7	-5.3
- CN(c1ccc(F)cc1)S(=O)(=O)c1ccc(Cl)c(C(=O)NCC(c2ccco2)N2CCCCC2)c1 (stereo not drawn)
  -15.3	6.2	9.8	·	·	5.4	6.2
- O=C(NCCOc1ccccc1)C1CCC(=O)N(CCN2CCOCC2)C1 (stereo not drawn)
  5.5	-10.4	1.0	-4.3	5786	0.0	1.9
- COC(=O)[C@]1(Cc2ccccc2)NC(c2ccc(-c3ccc(Cl)c(Cl)c3)cc2)C2C(=O)N(C)C(=O)C21 (stereo partly drawn)
  ·	20.8	10.9	·	·	-0.8	1.1
- COc1ccc(OC)c(NC(=O)COC(=O)c2ccc(S(=O)(=O)N3CCOCC3)cc2)c1
  -13.1	20.8	-14.5	3.7	2810	-18.8	-0.8
- CCOC(=O)C1CCCN(c2ccc([N+](=O)[O-])c3nonc23)C1 (stereo not drawn)
  -10.7	8.7	3.7	1.8	8761	9.9	3.9
- COc1ccc(C2CN=NC23CCc2ccccc2C3=O)cc1 (stereo not drawn)
  -21.9	-1.9	2.6	-2.7	?	2.6	1.4
- COc1ccccc1C(=O)NC1CCN(C(=O)Nc2ccc(F)cc2)CC1
  -9.2	11.0	2.9	-8.8	4484	7.0	14.7
- CCOC(=O)C(=Cc1ccccc1OC)C(=O)OCC
  22.9	·	·	-8.6	1906	·	·
- CCOC(=O)CN1C(=O)SC(Nc2ccc(C)cc2)C1=O (stereo not drawn)
  26.0	6.2	7.7	-4.0	4455	6.1	7.2

The list continues.
Values run as follows: PrP 5UTR inh	Mtb hypoxia rep	Mtb hypoxia rep growth	BJeLR viability	Bead autofluor	RN4220 kill	Sa ugtP lethal
- Brc1ccccc1Cn1cnc2ccccc21
  -2.9	2.2	10.4	-10.4	4096	6.8	4.4
- ON=C1CCCc2ccccc21
  ·	2.1	4.9	·	·	1.6	-1.8
- Cc1cc(SC(C)C(=O)NCC(=O)Nc2ccc(F)c(F)c2F)nc2ccccc12 (stereo not drawn)
  -6.5	9.4	1.0	2.3	9047	9.9	3.2
- Cc1ccc(CN=c2c([N+](=O)[O-])nn(-c3cccc(C)c3)n2O)cc1
  7.8	9.2	11.1	4.3	4540	-2.1	12.9
- O=C1CCCN1CCC1CCN(C2CC(=O)N(Cc3ccc(N4CCCC4=O)cc3)C2=O)CC1 (stereo not drawn)
  -14.9	5.7	11.2	8.4	7817	2.8	0.4
- COCc1cc(C)nc(OCC(=O)NN=Cc2cc(C)n(-c3cccc(C(F)(F)F)c3)c2C)c1C#N
  ·	-0.5	11.1	·	·	-0.8	-0.3
- CCN1CCN(CC#CCOc2ccccc2OC)CC1
  29.2	9.4	1.3	-10.5	3125	7.2	11.4
- CCOC(=O)Cn1c(=O)oc2cc(S(=O)(=O)Nc3cc(Cl)ccc3OC)ccc21
  -26.9	4.6	2.8	2.6	5601	9.7	-9.2
- O=S(=O)(c1ccccc1)N1CCN(c2ncnc3scc(-c4ccccc4)c23)CC1
  -45.3	-4.9	-5.3	-6.6	5050	96.1*	98.2*
- COc1ccc(N2CCN(C(C)C(=O)N(C)Cc3ccccc3)CC2)cc1 (stereo not drawn)
  -3.4	-2.1	-7.8	14.7	2889	6.5	2.3
